From PubChem BioAssay
DUX4 inh – blocks DUX4-driven transcriptional activation; 37,000 compounds, 0.8% hits; 293T-iDUX4 ZSCAN4-Gaussia luciferase reporter, 24 h; active compounds read low; activity change, negative = inhibition, % (test concentration not listed); AID 1224904;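 active = -10% or lower and over 25 points stronger than a control reporter; inconclusive = -10% or lower with a smaller gap; inactive = above -10%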;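 note: 0% = median of neutral control wells and -100% = median of positive control wells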
DUX4 inh difference – further read-out of DUX4 inh, marked with its call; Gaussia minus Italica difference, %; measured here: selective DUX4 reporter inhibition;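 worked out from the two reporters; negative = selective loss of the DUX4 reporter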
DUX4 inh control – recorded beside DUX4 inh, whose call it bears; activity change, negative = inhibition, %; measured here: Italica tet-on control reporter;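 0 = neutral control and -100 = positive control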
An asterisk follows results filed as active; ? = inconclusive; / = not tested or not shown. Not all compounds are listed, so the mix of outcomes need not match the whole.

DUX4 inh | DUX4 inh difference | DUX4 inh control | Molecule
? | / | / | O=C(C[C@H]1CC[C@@H]2[C@H](COC[C@H](O)CN2Cc2ccc(Oc3ccccc3)cc2)O1)N1CCN(c2ccccc2)CC1
2 | -3 | 5.6 | O=C(Nc1ccccc1)[C@H]1[C@H](CO)[C@H]2Cn3c(ccc(C4=CCCC4)c3=O)[C@H]2N1Cc1cocn1
6 | 5 | 0.6 | C[C@@H]1COCc2cn(nn2)CC[C@H](C)C(=O)N1
-3 | -2 | -1.1 | CCC(=O)N1CC2(CN(C(C)=O)C2)c2c([nH]c3cc(OC)ccc23)[C@H]1CO
11 | 11 | 0.2 | COc1cccc(-c2ccc3c(c2)[C@@H]2[C@@H](CCN2S(=O)(=O)c2ccccc2F)[C@H](CO)N3)c1
23 | 1 | 22 | O=C(c1ccncc1)N1CCCCN2[C@H](C1)[C@H](c1ccc(-c3ccccc3)cc1)[C@@H]2CO
-5 | -7 | 2.1 | CNC[C@H]1OCCCC[C@@H](C)Oc2ccc(NS(=O)(=O)c3ccc(F)cc3)cc2C(=O)N([C@H](C)CO)C[C@@H]1C
2 | 1 | 0.8 | O=C([C@H]1[C@H](CO)[C@H]2Cn3c(cccc3=O)[C@@H]1N2CC1CCCCC1)N1CCOCC1
-7 | -8 | 1.0 | C[C@@H]1CN([C@@H](C)CO)C(=O)c2c(c3ccccc3n2C)-c2ccccc2CO[C@@H]1CN(C)C(=O)c1ccc(F)cc1
1 | -3 | 4.0 | COc1ccc(S(=O)(=O)Nc2ccc3c(c2)C(=O)N([C@H](C)CO)C[C@H](C)[C@H](CN(C)CC2CC2)OCCCC[C@@H](C)O3)cc1
4 | 1 | 3.0 | COc1ccccc1C(=O)Nc1ccc2c(c1)C(=O)N(C)C[C@@H](OC)[C@H](C)CN(C(C)=O)[C@@H](C)CO2
0 | 1 | -0.2 | C[C@@H]1CN([C@H](C)CO)C(=O)c2cc(NS(=O)(=O)c3ccc(F)cc3)ccc2O[C@@H](C)CCCCO[C@H]1CN(C)C(=O)Nc1ccc2c(c1)OCO2
-2 | -4 | 1.5 | COCC(=O)N1C[C@H]2[C@@H](c3ccccc31)[C@@H](CO)N2Cc1ccccc1
0 | 2 | -2.0 | C/C=C/c1ccc([C@@H]2[C@@H](CN(CC)C(C)=O)N(Cc3cccnc3)[C@H]2CO)cc1
1 | 1 | -0.1 | O=C(C[C@@H]1CC[C@H](NC(=O)CC2CC2)[C@@H](CO)O1)NCc1ccc(-c2ccccc2)cc1

DUX4 inh | DUX4 inh difference | DUX4 inh control | Molecule
7 | -3 | 11 | CN1CCN(C(=O)C[C@@H]2CC[C@@H]3[C@H](COC[C@@H](O)CN3C(=O)Nc3ccc4c(c3)OCO4)O2)CC1
? | / | / | COc1ccc(C#Cc2ccc([C@@H]3[C@H](CO)N4CCCCN(C(=O)Nc5cccc(F)c5)C[C@@H]34)cc2)cc1
6 | 0 | 6.5 | O=C(C[C@@H]1C[C@H]2c3cc(NS(=O)(=O)c4ccccc4)ccc3O[C@H]2[C@H](CO)O1)NCC1CC1
14 | 11 | 3.6 | CS(=O)(=O)N1CC2(C1)[C@@H](c1ccccc1)[C@@H](CO)N2C(=O)C1CCC1
-1 | 4 | -4.9 | CC=Cc1ccc2n(c1=O)C[C@H]1[C@H](CO)[C@@H](C(=O)Nc3ccccc3)N(CC)[C@@H]21 (mixture of isomers)
3 | -1 | 3.4 | COC(=O)C[C@H]1CC[C@@H]2[C@@H](COc3ccc(NC(=O)c4ccc(OC)cc4)cc3C(=O)N2C)O1
10 | 10 | 0.4 | COc1ccccc1C(=O)Nc1ccc2c(c1)OC[C@@H](C)N(CC1CC1)C[C@@H](C)[C@@H](OC)CN(C)C2=O
? | / | / | C[C@H](NC(=O)N(C)C[C@@H]1OCc2ccccc2-c2c(n(C)c3ccccc23)C(=O)N([C@@H](C)CO)C[C@@H]1C)c1ccccc1
1 | 0 | 0.5 | N#C[C@@H]1[C@@H](c2ccc(C3=CCCCC3)cc2)[C@H](CO)N1C(=O)c1ccccn1
2 | -1 | 2.2 | C[C@H](CO)N1C[C@H](C)[C@@H](CN(C)C(=O)Nc2ccc(F)cc2)OCCCC[C@H](C)Oc2ccc(NC(=O)NC3CCCCC3)cc2C1=O
-42* | -37* | -5.1* | C[C@@H]1CN([C@H](C)CO)C(=O)c2c(c3ccccc3n2C)-c2ccccc2CO[C@@H]1CN(C)Cc1ccccc1C(F)(F)F
4 | 4 | 1.0 | CS(=O)(=O)N1[C@H](C(=O)NC2CCC2)[C@@H](CO)[C@@H]2Cn3c(ccc(-c4ccccc4)c3=O)[C@@H]21
0 | 2 | -1.5 | CCS(=O)(=O)N1[C@H](C#N)[C@@H](c2ccc(C#CC(C)C)cc2)[C@@H]1CO
3 | 5 | -1.9 | COCCNC(=O)C[C@@H]1C[C@H]2c3cc(NS(C)(=O)=O)ccc3O[C@H]2[C@@H](CO)O1
-4 | 1 | -5.1 | C[C@H](CO)N1C[C@H](C)[C@H](CN(C)Cc2ccc(Oc3ccccc3)cc2)Oc2ccc(NC(=O)NC3CCCCC3)cc2CC1=O

DUX4 inh | DUX4 inh difference | DUX4 inh control | Molecule
-4 | 1 | -5.2 | COc1cccc(C(=O)Nc2ccc3c(c2)C(=O)N(C)[C@@H]2CC[C@@H](CC(=O)N[C@H](C)c4ccccc4)O[C@H]2CO3)c1
-3 | -2 | -0.6 | CC(C)NC(=O)N[C@@H]1C=C[C@H](CC(=O)O)O[C@H]1CO
-1 | 1 | -2.1 | CC(=O)N1[C@@H](CO)[C@@H]2c3ccccc3N(S(=O)(=O)c3ccccc3F)C[C@@H]21
7 | 2 | 5.0 | COCC(=O)N1[C@@H]2c3ccc(C4=CCCC4)c(=O)n3C[C@@H]2[C@@H](CO)[C@@H]1C(=O)N1CCN(C)CC1
-2 | -3 | 0.9 | C[C@H](CO)N1C[C@H](C)[C@H](CN(C)CC2CCCC2)Oc2ncc(C#Cc3cccc(F)c3)cc2C1=O
5 | 7 | -1.9 | COc1ccccc1NC(=O)N1C[C@H](O)COC[C@@H]2O[C@H](CC(=O)NCCc3ccncc3)CC[C@H]21
7 | 2 | 5.0 | C/C=C/c1ccc2c(c1)O[C@H](CN(C)C(=O)Nc1ccc(OC)cc1)[C@@H](C)CN([C@H](C)CO)S2(=O)=O
11 | 11 | 0.5 | O=C(c1ccccc1F)N1CC[C@H]2[C@H](CO)Nc3ccc(-c4ccc(F)cc4)cc3[C@H]21
-1 | -2 | 1.2 | CNC[C@H]1OCCCC[C@@H](C)Oc2ccc(NC(=O)Nc3c(C)noc3C)cc2C(=O)N([C@H](C)CO)C[C@@H]1C
10 | 9 | 1.2 | CCCN1[C@@H]2c3ccc(-c4ccccc4)c(=O)n3C[C@H]1[C@H](CO)[C@H]2C(=O)NCC
11 | 3 | 7.9 | CCCNC(=O)C[C@H]1CC[C@H]2[C@@H](COC[C@@H](O)CN2C(=O)Nc2ccccc2OC)O1
8 | -1 | 9.2 | O=C(C[C@H]1CC[C@H]2[C@@H](COC[C@@H](O)CN2C(=O)c2ccccc2F)O1)N1CCN(c2ccccc2)CC1
-6 | -3 | -3.5 | COc1ccc(NC(=O)N2CC(=O)N3[C@H](CO)[C@@H](c4ccc(C5=CCCC5)cc4)[C@@H]3C2)cc1
2 | -2 | 3.8 | CCCNC(=O)N1C[C@@H]2[C@H](c3ccccc31)[C@@H](CO)N2Cc1cc(F)ccc1F
-1 | -5 | 4.4 | CCC(=O)N1C[C@H](C)[C@H](OC)CN(C)C(=O)c2cc(NC(=O)Nc3ccc(Cl)cc3)ccc2OC[C@H]1C

A different layout for some results above.
The line under a structure holds: DUX4 inh | DUX4 inh difference | DUX4 inh control
C[C@H](CO)N1C[C@H](C)[C@H](CN(C)CC2CCCC2)Oc2ncc(C#Cc3cccc(F)c3)cc2C1=O
 : -2 | -3 | 0.9
COc1ccccc1NC(=O)N1C[C@H](O)COC[C@@H]2O[C@H](CC(=O)NCCc3ccncc3)CC[C@H]21
 : 5 | 7 | -1.9
C/C=C/c1ccc2c(c1)O[C@H](CN(C)C(=O)Nc1ccc(OC)cc1)[C@@H](C)CN([C@H](C)CO)S2(=O)=O
 : 7 | 2 | 5.0
O=C(c1ccccc1F)N1CC[C@H]2[C@H](CO)Nc3ccc(-c4ccc(F)cc4)cc3[C@H]21
 : 11 | 11 | 0.5
CNC[C@H]1OCCCC[C@@H](C)Oc2ccc(NC(=O)Nc3c(C)noc3C)cc2C(=O)N([C@H](C)CO)C[C@@H]1C
 : -1 | -2 | 1.2
CCCN1[C@@H]2c3ccc(-c4ccccc4)c(=O)n3C[C@H]1[C@H](CO)[C@H]2C(=O)NCC
 : 10 | 9 | 1.2
CCCNC(=O)C[C@H]1CC[C@H]2[C@@H](COC[C@@H](O)CN2C(=O)Nc2ccccc2OC)O1
 : 11 | 3 | 7.9
O=C(C[C@H]1CC[C@H]2[C@@H](COC[C@@H](O)CN2C(=O)c2ccccc2F)O1)N1CCN(c2ccccc2)CC1
 : 8 | -1 | 9.2
COc1ccc(NC(=O)N2CC(=O)N3[C@H](CO)[C@@H](c4ccc(C5=CCCC5)cc4)[C@@H]3C2)cc1
 : -6 | -3 | -3.5
CCCNC(=O)N1C[C@@H]2[C@H](c3ccccc31)[C@@H](CO)N2Cc1cc(F)ccc1F
 : 2 | -2 | 3.8
CCC(=O)N1C[C@H](C)[C@H](OC)CN(C)C(=O)c2cc(NC(=O)Nc3ccc(Cl)cc3)ccc2OC[C@H]1C
 : -1 | -5 | 4.4

The list continues:
DUX4 inh | DUX4 inh difference | DUX4 inh control | Molecule
0 | 1 | -0.9 | O=C([C@H]1[C@H](CO)[C@H]2Cn3c(cccc3=O)[C@H]2N1CC1CCCC1)N1CCc2ccccc2C1
-1 | 1 | -1.9 | CC(C)NC(=O)Nc1ccc2c(c1)C(=O)N([C@@H](C)CO)C[C@@H](C)[C@H](CN(C)C(=O)Nc1ccc(F)cc1)O2
-5 | -23 | 18 | CCCC(=O)N1CC2(C1)CN(S(=O)(=O)c1ccc(C)cc1)[C@H](CO)c1[nH]c3cc(OC)ccc3c12
5 | 2 | 2.7 | CN(C)CC(=O)N[C@H]1CC[C@H](CCNS(=O)(=O)c2ccccc2)O[C@@H]1CO
3 | 3 | 0.2 | COc1ccc(S(=O)(=O)N(C)C[C@H]2Oc3c(NC(=O)C4CCOCC4)cccc3C(=O)N([C@H](C)CO)C[C@@H]2C)cc1
0 | 2 | -2.8 | CC(C)CC#Cc1cnc2c(c1)C(=O)N([C@@H](C)CO)C[C@H](C)[C@@H](CN(C)C(=O)c1cccnc1)O2
-2 | 0 | -1.4 | N#C[C@@H]1[C@@H](c2ccc(/C=C/c3ccccc3)cc2)[C@@H](CO)N1C(=O)C1CC1
3 | 1 | 1.3 | O=C(C[C@@H]1C[C@H]2c3cc(NC(=O)Cc4ccncc4)ccc3O[C@H]2[C@@H](CO)O1)NCc1cccnc1
? | / | / | Cc1cccc(-c2ccc([C@@H]3[C@H](CO)N4CCCCN(CCC(F)(F)F)C[C@@H]34)cc2)c1
3 | 0 | 2.8 | COc1ccc(-c2ccc3n(c2=O)C[C@H]2[C@H](CO)[C@@H](C(=O)N(C)C)[C@@H]3N2C(=O)c2cnccn2)cc1
16 | 14 | 1.6 | COc1ccc2c3c([nH]c2c1)[C@@H](CO)N(S(=O)(=O)c1cn(C)cn1)CC31CN(CC2CCOCC2)C1
-3 | -3 | -0.8 | CN1C(=O)c2cc(NC(=O)Nc3ccccc3Cl)ccc2OC[C@@H]2O[C@@H](CC(=O)O)CC[C@H]21
0 | 0 | 0.0 | C[C@@H]1CN([C@@H](C)CO)C(=O)c2cccc(NC(=O)c3nc4ccccc4s3)c2O[C@@H]1CN(C)Cc1ccc(C(F)(F)F)cc1
9 | -6 | 15 | CNC[C@H]1OCc2ccccc2-c2c(n(C)c3ccccc23)C(=O)N([C@@H](C)CO)C[C@H]1C
4 | 0 | 4.0 | Cc1cccc(-c2ccc([C@H]3[C@H](CO)N4C(=O)CN(C(=O)NC5CCCCC5)C[C@@H]34)cc2)c1

DUX4 inh | DUX4 inh difference | DUX4 inh control | Molecule
-4 | -2 | -1.0 | COc1ccc(S(=O)(=O)Nc2ccc3c(c2)C(=O)N([C@H](C)CO)C[C@H](C)[C@H](CN(C)S(=O)(=O)c2ccc(Cl)cc2)OCCCC[C@@H](C)O3)cc1
? | / | / | O=C(C[C@@H]1CC[C@@H]2[C@H](COC[C@@H](O)CN2Cc2ccc(Oc3ccccc3)cc2)O1)N1CCOCC1
19 | 19 | 0.4 | COc1ccc2c3c(n(C)c2c1)[C@@H](CO)N(C)CC31CCN(S(C)(=O)=O)CC1
3 | 2 | 0.6 | COc1ccc(NC(=O)N[C@@H]2CC[C@@H](CCn3cc(C4(O)CCCC4)nn3)O[C@@H]2CO)cc1
-5 | -2 | -2.3 | N#C[C@H]1[C@H](c2ccc(C#Cc3ccc(F)cc3)cc2)[C@@H](CO)N1C(=O)C1CCC1
3 | 1 | 1.4 | CO[C@H]1CN(C)C(=O)c2cccc(C#N)c2OC[C@H]2O[C@H](CC[C@H]2OC)CCN(C)C(=O)[C@@H]1C
1 | 0 | 0.5 | CCCNC(=O)N1CC2(C1)[C@H](c1ccccc1)[C@H](CO)N2C(=O)C1CCC1
-2 | -3 | 0.9 | CCC(=O)Nc1ccc2c(c1)OC[C@@H](C)N(C(=O)c1ccncc1)C[C@@H](C)[C@H](OC)CN(C)C2=O
-8 | -14 | 6.7 | COCc1cn(CC[C@@H]2CC[C@H](NC(=O)Nc3c(C)noc3C)[C@H](CO)O2)nn1
? | / | / | CCCC(=O)Nc1ccc2c(c1)C(=O)N(C)C[C@H](OC)[C@@H](C)CN(Cc1ccc(F)cc1)[C@@H](C)CO2
-1 | -1 | 0.9 | COc1ccc(C[C@@H]2CCc3cnnn3COC[C@@H](Cc3ccccc3)NC2=O)cc1
17 | 1 | 17 | CC(C)(O)C#Cc1ccc([C@H]2[C@H](CO)N3CCCCN(C(=O)c4cccnc4)C[C@@H]23)cc1
-1 | -2 | 0.3 | CN(C)C(=O)c1cccc(-c2ccc([C@H]3[C@@H](C#N)N(C(=O)C4CCC4)[C@H]3CO)cc2)c1
